Source: PubChem (ICCB-Longwood Screening Facility, Harvard Medical School)
KSHV LANA nucl – inhibitors of KSHV LANA-nucleosome binding, primary screen, biochemical, fluorescence polarization, FITC-LANA1-23, chicken nucleosomes | FITC-LANA1-23 / chicken nucleosome fluorescence polarization; active compounds read low | z-score (test concentration not listed) | 51,000 tested, 0.3% active | AID 720717, 2013;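 active = both repeat wells score below -2 in polarization z-score versus plate sample wells, excluding overly bright wells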;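 note: 100 nL library stock added to about 30 µL; numbers are from one replicate; some results filed as inactive read as strong as hits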
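Assay system: FITC-LANA peptide and chicken nucleosomes; input: 240 nM purified chicken nucleosomes (480 nM peptide binding sites), final; also added: 50 nM FITC-LANA1-23 probe; medium: TEN-BT buffer, pH 7.5; doses: pin-transferred compound, 100 nL; times: 10–45 min, room temperature; technique: fluorescence polarization; replication: duplicates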
Ab BasE inh – BasE siderophore enzyme inhibitors, primary screen, biochemical, Acinetobacter baumannii ATCC 17978, fluorescence polarization | purified BasE, fluorescence polarization binding displacement | 84,000 tested, 0.1% active | inhibition, % (concentration not given with the values) | AID 485350, 2010;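 active = both replicates above 25% with normal brightness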;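 note: 0% = negative plate control signal and 100% = positive plate control signal; stock transfer was 100 nL into about 30 µL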
The depositor's hits bear a star; x = not tested or not shown; & = joins results of further samples. A portion of the library. The share of hits here may be higher or lower than overall.

Value order: KSHV LANA nucl | Ab BasE inh
[1] Cc1sc2ncnc(N3CCC(C)CC3)c2c1C
  -1.5 | -0.5
[2] Cc1nn(C)cc1S(=O)(=O)N1CCN(c2ccccn2)CC1
  -0.49 | -0.9
[3] O=C(OCc1ccccn1)c1ccc(COc2ccccc2Cl)o1
  0.44 | -1.9
[4] CC(C)(C)OC(=O)CSc1nnc(Cc2cccc3ccccc23)n1N
  x | -0.9
[5] O=C(CCN1CCOCC1)NN=C1C2CC3CC(C2)CC1C3
  x | 0.6
[6] O=S(=O)(NC1CCCCC1)c1ccc(S(=O)(=O)N2CCN3CCCC3C2)cc1 (configuration not stated)
  0.41 | -0.3
[7] COc1ccccc1N1CCN(CCCNC(=O)c2nn(C)c3c2COc2ccccc2-3)CC1
  -0.95 | -1.0
[8] COCCCN1C(=O)CSC1c1cn(-c2ccccc2)nc1-c1cccs1 (configuration not stated)
  x | 2.5
[9] CCN(CC)c1nc(Nc2ccc(Cl)cc2)nc(N(CC)CC)n1
  -0.36 | -1.0
[10] CCN(/C=N/c1ncc(-c2ccc(Br)cc2)s1)CC
  0.55 | 4.4
[11] COC(=O)C(Cc1ccccc1)NC(=O)c1nn(C)c(=O)c2ccccc12 (configuration not stated)
  x | -4.4
[12] CC(C)C(=O)Oc1ccc2c(c1)oc(=O)c1ccccc12
  x | -0.5
[13] CCCNC(=O)c1ccccc1SC
  1.6 | -2.6
[14] O=C(C(c1ccccc1)c1ccccc1)N1CCN(c2ccccn2)CC1
  0.11 | -0.6
[15] NC(=O)C1CCN(CC(=O)NCc2ccc3c(c2)OCO3)CC1
  -0.29 | 2.4
[16] CNC(=O)CSc1nnc(-c2ccc3c(c2)OCO3)n1-c1ccccc1
  x | 2.4
[17] CCCCCc1c(O)nc(SCCN(CC)CC)n(C(=O)c2ccccc2)c1=O
  0.26 | -1.7
[18] CN(C)c1cnn(-c2ccccc2)c(=O)c1Cl
  0.21 | 0.7
[19] COc1cc2c(=O)oc(-c3c(-c4c(F)cccc4Cl)noc3C)nc2c(OC)c1OC
  x | 2.4
[20] O=C(C(Cc1ccccc1Cl)C(=O)N1CCc2ccccc21)N1CCc2ccccc21
  x | -0.1
[21] CCOC(=O)c1cnc2c(C#N)c(C)nn2c1C
  x | 2.9
[22] Cc1cccc(NC(=O)CN2CCC(C)CC2)c1C
  x | -4.4
[23] S=C1NCN(CCc2ccccc2)CN1
  x | 0.6
[24] Cc1c(C(=O)N2CCCC2)c(S(=O)(=O)Nc2ccccc2)c(C)n1C
  -0.23 | 1.8
[25] Cc1cccc(/C=N/n2c(C)cc(C)c(C#N)c2=O)c1
  2 | -0.7
[26] Cn1cccc1/C=C1\CC(c2ccccc2)C/C(=C\c2cccn2C)C1=O (configuration not stated)
  1.8 | -15
[27] COc1ccc(NC(=O)CN(C)CC(=O)Nc2ccc(N3CCOCC3)cc2)cc1
  x | -1.2
[28] COc1ccc(C(=O)c2c(N)sc3c2CCN(Cc2ccccc2)C3)cc1
  7.6 | x
[29] CC(Oc1ccccc1)C(=O)N=Nc1c(O)[nH]c2ccc(Br)cc12 (configuration not stated)
  0.34 | 2.6
[30] CC(=O)Nc1ccc2nc(SCc3ccccc3C#N)sc2c1
  0.013 | -5.5
[31] COC(=O)c1sccc1NC(=O)c1ccc(F)cc1
  -0.81 | 1.6
[32] CN1CCCN(CC2CC=CCC2)CC1 (configuration not stated)
  0.22 | -2.9
[33] CN1C(=O)c2ccccc2Sc2ccc(NC(=O)NC3CC3)cc21
  -0.41 | -4.7
[34] Cc1ccc(O)c(C(=O)c2cnn3c(N)nnc3c2)c1
  x | -2.5
[35] CCn1cc(S(=O)(=O)NCc2cccs2)cn1
  2.3 | 0.9
[36] CCCc1nc2ccccc2n1CC(O)COc1ccccc1 (configuration not stated)
  -0.68 | 2.2
[37] CN(C(=O)COc1ncnc2sccc12)C1CCCCC1
  x | 1.6
[38] O=C(COc1ccc2c(c1)CCC2)N(Cc1cccnc1)c1ccc2c(c1)OCO2
  x | -0.8
[39] COCCCNc1cc(C)nc2ccccc12
  -1.4 | 1.7
[40] CC1CCCC(C)N1C(=O)c1ccccc1N (configuration not stated)
  0.2 | 0.1
[41] C=CCc1cccc(/C=N/n2c(-c3ccccc3C)n[nH]c2=S)c1O
  -1.2 | 0.4
[42] COc1cc(C(=O)OCc2cc3ccccc3nc2Cl)cc2c1OCCO2
  x | 1.0
[43] NC(=O)CSc1ncnc2sc3c(c12)CCC3
  x | -0.8
[44] CCOC(=O)c1cnc2ccccc2c1NCCc1ccccc1
  x | -1.0
[45] COc1ccc(-c2cc(-c3ccco3)nn2-c2nc(-c3ccc(Cl)cc3)cs2)cc1
  x | -1.3
[46] CCCCN=C1SC(CC(=O)Nc2ccccc2C)C(=O)N1CCCC (configuration not stated)
  x | -0.3
[47] CC(C)N1CCC(NC(=O)NC2CCCCC2)CC1
  -0.034 | -2.0
[48] Cc1c(Cl)cccc1-n1ccn(CC#N)c(=O)c1=O
  -1.5 | -0.1
[49] Cc1nccn1C(=O)c1cc2ccccc2oc1=O
  -0.55 | 1.4
[50] c1ccc(-c2nc3ccccc3nc2N2CCCCC2)cc1
  0.12 | 2.6

Some of these compounds in order of molecular weight, low to high.
Value order: KSHV LANA nucl | Ab BasE inh
[47] CC(C)N1CCC(NC(=O)NC2CCCCC2)CC1
  -0.034 | -2.0
[50] c1ccc(-c2nc3ccccc3nc2N2CCCCC2)cc1
  0.12 | 2.6
[46] CCCCN=C1SC(CC(=O)Nc2ccccc2C)C(=O)N1CCCC (configuration not stated)
  x | -0.3

Further compounds.
Value order: KSHV LANA nucl | Ab BasE inh
[51] CS(=O)c1scc(-c2ccc(Cl)cc2)c1C#N (configuration not stated)
  0.89 | 29*
[52] Cc1ccc(NC(=O)Cn2c(CC3CCS(=O)(=O)C3)nc3ccccc32)cc1C (configuration not stated)
  x | 0.8
[53] CCC(C)Sc1nc(O)cc(=O)n1-c1ccccc1 (configuration not stated)
  -1.3 | 2.6
[54] Cn1cc(NC(=O)NCCCN2CCCCC2)c2ccccc2c1=O
  -0.14 | 2.6
[55] O=C1/C(=C/c2ccco2)SC(=S)N1CCc1ccccc1
  -0.35 | 0.5
[56] CCO/C=C1\N=C(c2ccccc2)OC1=O
  x | -0.1
[57] COc1ccc(C2CC(c3ccc(Br)cc3)=NN2C(=O)CCN2CCOCC2)cc1 (configuration not stated)
  x | -4.7
[58] Cn1c(=O)c2[nH]cnc2n(C)c1=O
  1.1&0.77&0.43&-0.085&0.32 | -1.5&-0.1&2.4
[59] CN(C)Cc1c(O)ccc2cc(-c3nc4ccccc4n3C)c(=O)oc12
  0.39 | 7.0
[60] Cc1cc(C(=O)COC(=O)c2ccc3c(c2)C(=O)N(CCC(C)C)C3=O)c(C)n1Cc1cccs1
  x | -0.7
[61] CCOC(=O)N1CCN(CC(=O)NCCc2ccc(Cl)cc2Cl)CC1
  x | 2.0
[62] Cn1nnc(C(O)CNCc2ccc(F)cc2)n1 (configuration not stated)
  2.3 | -1.4
[63] O=C(Nc1ccc(S(=O)(=O)N2CCCC2)cc1)Nc1ccc(F)cc1F
  0.77 | 3.1
[64] O=C(O)CCCC(=O)Nc1ccc(C(=O)N2CCCCC2)cc1
  2.3 | -1.9
[65] S=C(NC1CCCC1)N1CCN(c2ccccc2)CC1
  -0.57 | 3.3
[66] Cc1ccc(CCC(=O)NC2CCc3ccccc3C2)o1 (configuration not stated)
  -0.5 | -1.1
[67] CSc1cnn(-c2ccccc2)c(=O)c1SC
  -0.98 | -0.1
[68] Cc1cc(C)cc(NC(=O)C2CC(=O)NC(=NCc3ccccc3)N2)c1 (configuration not stated)
  0.55 | 0.3
[69] Cc1cc(C)nc(C(=O)N/N=C/c2cc(C)n(C3CCCC3)c2C)n1
  x | 1.6
[70] COC(=O)C1=C(O)/C(=C/c2ccc(O)cc2)SC1=Nc1ccccc1
  x | -1.8

Grouped by structure: the entries above with bromine.
Value order: KSHV LANA nucl | Ab BasE inh
[10] CCN(/C=N/c1ncc(-c2ccc(Br)cc2)s1)CC
  0.55 | 4.4
[29] CC(Oc1ccccc1)C(=O)N=Nc1c(O)[nH]c2ccc(Br)cc12 (configuration not stated)
  0.34 | 2.6
[57] COc1ccc(C2CC(c3ccc(Br)cc3)=NN2C(=O)CCN2CCOCC2)cc1 (configuration not stated)
  x | -4.7

(listing goes on)
Value order: KSHV LANA nucl | Ab BasE inh
[71] O=C(Nc1ccc(F)cc1)C1CC(=O)N(Cc2ccco2)C1 (configuration not stated)
  -0.45 | x
[72] CC(C(=O)Nc1cccc(Cl)c1)N1CCNC(=O)C1 (configuration not stated)
  x | 1.4
[73] CN(CC(=O)Nc1ccc(F)cc1)C(=O)CSc1ccc2c(c1)OCCO2
  x | 0.4
[74] Cc1ccc(C(=O)Nc2ccccc2C#N)cc1
  x | 0.8
[75] COc1ccc(CNC(=O)c2c(-n3cccc3)sc(C)c2C)cc1
  x | -4.6
[76] CN(C)c1nc(N(C)C)nc(N(C#N)CN2C(=O)c3ccccc3C2=O)n1
  0.16 | 1.2
[77] Cc1cc(COC(=O)C23CCC(=O)N2c2ccccc2C(=O)N3C)no1 (configuration not stated)
  x | -1.8
[78] Cc1ccc(N2C(=O)/C(=C/c3ccc4c(c3)OCO4)N=C2SCC(=O)Nc2cc(C)on2)cc1
  x | 1.2
[79] CN(C)C=Nc1ccccc1I
  x | 0.2
[80] O=C(Oc1cccc2ccccc12)c1ccccc1
  x | 1.9
[81] N#C/C(=C\Nc1ccc(C(N)=O)cc1)c1nc(-c2ccccc2)cs1
  x | 1.0
[82] CN(Cc1ccccc1)C(=O)CN1C(=O)c2cccnc2Oc2ccc(Cl)cc21
  -0.15 | 1.0
[83] Cn1cc(CNC(=S)NCc2ccc(Cl)cc2)cn1
  -0.55 | 1.5
[84] CNC(=S)N/N=C(\C)c1ccc2c(c1)OCCO2
  x | 3.9
[85] CN(C)/C=N/c1c(-c2nc(-c3ccc(Cl)cc3)cs2)cnn1C
  x | 0.0
[86] COc1ccc(N2C(=O)CC(N3CCN(C(c4ccc(F)cc4)c4ccc(F)cc4)CC3)C2=O)cc1 (configuration not stated)
  0.49 | -0.2
[87] COC(=O)C1CN(C(=O)c2cccc(OC)c2)c2ccccc2O1 (configuration not stated)
  0.053 | 1.0
[88] Cc1cccc(C(=O)N2CC(C)CC(C)C2)c1 (configuration not stated)
  0.51 | -2.1
[89] CCOc1cc(CN2CCN(CC3CC4C=CC3C4)CC2)ccc1OC (configuration not stated)
  2 | -2.3
[90] CCN(CC)c1ccc(N=Cc2ccccc2O)cc1
  0.15 | -2.4
[91] COc1ccc(C2=Nc3ccccc3N=C(c3ccc4ccccc4c3O)C2)cc1
  x | -12
[92] COc1cc(OC)cc(C(=O)N(c2ccccn2)c2ccccn2)c1
  x | 3.4
[93] CC(CN1CCCCC1)OC(=O)c1ccc2c(c1)OCO2 (configuration not stated)
  -0.52 | 1.4
[94] O=C1CN(C(=O)Cn2cc(C(F)(F)F)ccc2=O)c2ccccc2N1
  x | 2.3
[95] Cc1cc(C)n(CCC(=O)N2CCN(S(=O)(=O)c3ccccc3)CC2)n1
  0.086 | -0.4
[96] CC(C(=O)NCC1CCCO1)n1c2ccccc2c2cnn(C)c(=O)c21 (configuration not stated)
  -0.45 | 0.6
[97] O=C(Nc1ccc(N2CCCCS2(=O)=O)cc1)c1ccccc1
  -1.6 | 1.8
[98] Cn1c(CN2CCOCC2)nc2cc(N)ccc21
  0.5 | 1.0
[99] CCCc1cnc(N2CCN(S(C)(=O)=O)CC2)nc1
  x | 0.4
[100] OC1CCCN(Cc2cccc3ccccc23)C1 (configuration not stated)
  0.13 | -2.7
[101] N#Cc1ccc(NC(=O)Nc2ccccc2)cc1
  x | 1.6
[102] O=C(COC(=O)c1cccnc1Cl)c1ccccc1
  x | 2.1
[103] O=c1c(=NO)c(=O)c2ccccc12
  0.42 | 1.9
[104] COc1cc(/C=N/N2C(=O)c3ccccc3C2=O)ccc1OCC(=O)N1CCOCC1
  x | 3.0
[105] O=C(c1ccccc1)n1nnc2ccccc21
  -0.56 | 0.3
[106] COc1ccc(CC(=O)NCC2OCCc3ccccc32)cc1OC (configuration not stated)
  -0.42 | -1.2
[107] O=C(O)c1cc2cc(Cl)ccc2o1
  -0.33 | 2.3
[108] CSc1nnc(COc2ccc(Cl)cc2)n1C
  -0.63 | -3.2
[109] CCN(CCS(=O)(=O)c1ccc(C)cc1)C(=O)c1ccc(-c2cc(C(F)(F)F)nn2C)s1
  x | -1.6
[110] O=C(C1CCC1)N1CCc2cc(S(=O)(=O)NCCN3CCOCC3)ccc21
  -0.85 | 4.6
[111] Cc1nc(C)c(C(=O)O)o1
  -1.3 | -0.4
[112] CCN1c2ccccc2C(=O)CS1(=O)=O
  -0.32 | 2.8
[113] CC1=C(C)/C(=N\S(=O)(=O)c2ccc(C)cc2)C=C(N2CCOCC2)C1=O
  x | -0.7
[114] O=C(O)CC(CC(=O)Nc1cc(C(F)(F)F)cc(C(F)(F)F)c1)c1ccc(Cl)cc1Cl (configuration not stated)
  x | 1.6
[115] CC(C)C(NS(=O)(=O)c1cccc(C(F)(F)F)c1)C(=O)O (configuration not stated)
  x | 2.0
[116] C=CCN1CCN(C(=O)c2csc3ccccc23)CC1
  0.44 | 2.2
[117] COC(=O)c1sc(C(F)(F)F)c(-c2ccccc2)c1S(=O)(=O)N1CCOCC1
  x | 3.0
[118] N#CC1(c2ccccc2)CCC(=O)CC1
  x | -0.6
[119] Cc1cccc(CN2CCC(C(=O)N3CCC(C)CC3)CC2)c1
  -0.34 | 0.9
